# Compound activity: PubChem BioAssay, Broad Institute
# AF4-AF9 inh – inhibitors of human MLL-AF4/AF9 interaction | P42568 | AlphaScreen, biotin-AF4 peptide binding to FLAG-AF9 | inhibition, % at 10 µM | actives 0.47% (n = 350,000) | AID 651704;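 active = every replicate reaching a set inhibition limit, whatever the replicate mean, cut at about 25% in these data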;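 note: 0% = plate neutral control median and 100% = total signal loss; the record names both 10 and 1 µM as test concentration; the first replicate is given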
# Target sequence (P42568 whole entry, looked up): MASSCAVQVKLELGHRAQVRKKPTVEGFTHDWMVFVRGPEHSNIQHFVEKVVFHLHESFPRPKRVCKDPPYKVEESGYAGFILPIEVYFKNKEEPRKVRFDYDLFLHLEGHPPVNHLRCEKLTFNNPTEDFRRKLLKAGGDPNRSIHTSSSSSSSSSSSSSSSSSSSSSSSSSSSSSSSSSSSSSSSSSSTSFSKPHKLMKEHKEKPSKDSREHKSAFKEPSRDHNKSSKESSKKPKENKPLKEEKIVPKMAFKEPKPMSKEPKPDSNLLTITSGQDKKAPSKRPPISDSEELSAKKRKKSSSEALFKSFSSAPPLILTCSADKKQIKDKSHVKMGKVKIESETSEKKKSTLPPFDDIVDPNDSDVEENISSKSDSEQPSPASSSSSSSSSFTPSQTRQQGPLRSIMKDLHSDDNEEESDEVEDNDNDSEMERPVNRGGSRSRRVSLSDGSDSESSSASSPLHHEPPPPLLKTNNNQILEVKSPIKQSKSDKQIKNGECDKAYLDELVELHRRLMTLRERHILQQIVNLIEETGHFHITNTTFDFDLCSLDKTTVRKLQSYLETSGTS
# * marks the source's active call; other numbers are inactive results; & = joins results of further samples. Not all compounds are listed; count on the stated rates, not on these rows.
SMILES,AF4-AF9 inh
COC(=O)c1cc2c(c3c4ccccc4n(S(=O)(=O)c4cccc(C)c4)c13)C(=O)N(Cc1ccccc1)C2,1.2
C[C@H]1CCCCO[C@H](CN(C)Cc2ccccc2)[C@@H](C)CN([C@@H](C)CO)C(=O)c2cc(NC(=O)Nc3ccccc3)ccc2O1,13
C[C@@H]1CN([C@@H](C)CO)C(=O)Cc2cc(NS(=O)(=O)c3ccc(Cl)cc3)ccc2O[C@H]1CN(C)Cc1ccc(C(=O)Nc2ccccc2N)cc1,-19
COc1ccc(-c2ccc([C@@H]3[C@@H](CO)N4CCCCN(C(=O)c5ccc6c(c5)OCO6)C[C@@H]34)cc2)cc1,-9.4
C[C@H](CO)N1C[C@H](C)[C@@H](CN(C)Cc2ccccn2)Oc2ncc(C#CCc3ccccc3)cc2C1=O,3.4
C[C@@H]1CN([C@H](C)CO)C(=O)c2cc(C#CC3CC3)cnc2O[C@H]1CN(C)C(=O)CC1CC1,-2.0
CO[C@H]1CN(C)C(=O)c2ccc(NS(=O)(=O)CC(F)(F)F)cc2OC[C@@H](C)NC[C@H]1C,-1.3
C[C@H]1CN([C@@H](C)CO)C(=O)c2cc(NC(=O)Nc3ccc4c(c3)OCO4)ccc2O[C@@H]1CN(C)Cc1ccccc1,3.0
CC(C)NC(=O)Nc1ccc2c(c1)C(=O)N([C@H](C)CO)C[C@H](C)[C@@H](CN(C)Cc1ccccc1)OCCCC[C@@H](C)O2,-3.4
C[C@H]1CN([C@@H](C)CO)C(=O)c2cc(NC(=O)Nc3ccc(F)cc3)ccc2O[C@@H]1CN(C)CC1CCCCC1,0.5
C[C@H](NC(=O)[C@@H]1CCCN1C(=O)[C@@H]1CCCN1C(=O)c1cccc(Cl)c1)c1ccccc1,0.0
C[C@@H]1CN([C@@H](C)CO)C(=O)c2cc(NC(=O)Nc3ccc(C(F)(F)F)cc3)ccc2O[C@@H](C)CCCCO[C@H]1CN(C)S(=O)(=O)c1ccccc1,0.7
Cc1ccc2nc(-c3cccc(Cl)c3)c(Cc3cccc(Cl)c3)n2c1,-0.6
Cc1ccc(-c2ccc(C3[C@H]4CNC[C@@H]3N4S(=O)(=O)c3ccc(C)cc3)cc2)cc1 (stereo not given in full),-4.6
CO[C@H]1CN(C)C(=O)c2cc(NC(=O)c3ccccc3F)ccc2OC[C@@H](C)N(C)C[C@H]1C,-1.2
COc1ccc(CN(C)C[C@H]2Oc3c(NC(=O)C4CCOCC4)cccc3C(=O)N([C@H](C)CO)C[C@@H]2C)cc1,0.8
CCNC(=O)C[C@H]1CC[C@H]2[C@H](COc3ccc(NC(=O)c4cccc(OC)c4)cc3C(=O)N2C)O1,0.2
CC(C)NC(=O)Nc1ccc2c(c1)C(=O)N([C@H](C)CO)C[C@@H](C)[C@H](CN(C)S(=O)(=O)c1ccccc1)OCCCC[C@@H](C)O2,0.5
COc1ccc(NC(=O)N(C)C[C@@H]2OCCCC[C@H](C)Oc3ccc(NS(=O)(=O)c4ccc(C)cc4)cc3C(=O)N([C@H](C)CO)C[C@H]2C)cc1,-4.0
CN(C)C(=O)C[C@@H]1CC[C@H](NC(=O)Nc2cccc(F)c2)[C@@H](CO)O1,-1.2
O=C(C1CCC1)N1CC[C@@H]2[C@H](CO)Nc3ccc(C#Cc4cccc(F)c4)cc3[C@@H]21,-0.9
CO[C@@H]1CN(C)C(=O)c2ccc(NC(=O)C3CC3)cc2OC[C@H](C)N(C(=O)c2ccccn2)C[C@H]1C,-1.4
CCCNC(=O)N(C)C[C@H]1Oc2ncc(-c3ccc(F)cc3)cc2C(=O)N([C@H](C)CO)C[C@@H]1C,-1.1
CN(C)CC(=O)N1[C@@H]2c3cccc(=O)n3C[C@@H]2[C@@H](CO)[C@@H]1C(=O)NCc1ccccc1F,-3.8
CC(C)CC(N)c1csc(Nc2cnccn2)n1 (stereo not given),-4.0
COc1cccc(C#Cc2ccc([C@H]3[C@@H](CO)N(C(=O)C4CC4)[C@H]3C#N)cc2)c1,4.0
C[C@@H]1CN([C@H](C)CO)C(=O)Cc2cc(NS(=O)(=O)c3ccccc3)ccc2O[C@H]1CN(C)CC1CC1,-1.8
CCCCCCC12C(=Cc3cc4c(cc31)OCCO4)c1cc(OC)c(OC)cc1C(CC(=O)O)N2C(=O)OC (stereo not given),0.2
CO[C@@H](CN(C)C(=O)c1ccc2c(c1)OCO2)[C@@H](C)CN([C@H](C)CO)S(=O)(=O)c1ccc(F)cc1,-0.6
C[C@@H]1CN([C@@H](C)CO)C(=O)c2cc(N(C)C)ccc2O[C@H]1CN(C)S(=O)(=O)c1ccc(Cl)cc1,-2.2

# Quoted at random: 2 entries already listed.
SMILES,AF4-AF9 inh
CCCNC(=O)N(C)C[C@H]1Oc2ncc(-c3ccc(F)cc3)cc2C(=O)N([C@H](C)CO)C[C@@H]1C,-1.1
COc1cccc(C#Cc2ccc([C@H]3[C@@H](CO)N(C(=O)C4CC4)[C@H]3C#N)cc2)c1,4.0

# The list continues.
SMILES,AF4-AF9 inh
COc1cccc(NC(=O)N(C)C[C@H]2OCc3cnnn3CCCC(=O)N([C@@H](C)CO)C[C@@H]2C)c1,0.1
CO[C@H]1CN(C)C(=O)c2ccc(NC(=O)Nc3ccc(F)cc3)cc2OC[C@@H](C)NC[C@@H]1C,1.1
C/C=C/c1cnc2c(c1)C(=O)N([C@@H](C)CO)C[C@H](C)[C@@H](CN(C)CC1CCOCC1)O2,-2.5
CCCCC(=O)N(C)c1c(C)nc2ccc(C(=O)N3CCN(C(=O)c4ccco4)CC3)cn12,4.2
C[C@H]1CN([C@@H](C)CO)S(=O)(=O)c2ccc(C#CC(C)(C)O)cc2O[C@@H]1CN(C)C(=O)CC1CC1,-2.0
O=C(Nc1ccccc1Cl)N1C[C@@H]2[C@H](c3ccccc31)[C@H](CO)N2Cc1ccccc1,0.6
C[C@@H]1CN([C@@H](C)CO)C(=O)c2cc(NC(=O)c3ccncc3)ccc2O[C@@H](C)CCCCO[C@H]1CN(C)C,-4.7
C[C@@H]1CN([C@@H](C)CO)C(=O)Cc2cc(NC(=O)C3CC3)ccc2O[C@@H]1CN(C)Cc1ccc(Oc2ccccc2)cc1,1.3
C[C@@H]1CN([C@@H](C)CO)C(=O)c2cc(NS(=O)(=O)c3ccccc3)ccc2O[C@@H](C)CCCCO[C@@H]1CN(C)C(=O)Nc1ccccc1,-4.9
O=C(Cc1cccc(NC(=O)C2CCCN(C(=O)C3CC3)C2)c1)Nc1cccc(C(=O)N2CCOCC2)c1 (stereo not given),-3.9
Cc1ccc(S(=O)(=O)N2[C@@H](c3ccc(Br)cc3)C(C(=O)O)=CC[C@H]2c2ccc(Cl)c(Cl)c2)cc1,-0.9
O=C(Nc1ccc2c(c1)[C@@H]1C[C@@H](CC(=O)N3CCCCC3)O[C@H](CO)[C@@H]1O2)C1CCOCC1,-4.3
O=C(N[C@@H]1CC[C@@H](CCNC(=O)c2cnccn2)O[C@H]1CO)c1ccc2c(c1)OCO2,-0.4
CCS(=O)(=O)N1CCC2(CC1)CN(C(=O)Nc1cccc(F)c1)[C@@H](CO)c1c2c2ccc(OC)cc2n1C,0.9
CCCCNS(=O)(=O)c1cccc(NC(=O)[C@H]2C[C@H](O)[C@@H](CO)O2)c1,-3.0
C[C@H]1CN([C@@H](C)CO)C(=O)c2cccc(NS(=O)(=O)c3cn(C)cn3)c2O[C@H]1CN(C)C(=O)Nc1ccccc1,-1.7
Cc1ccccc1-c1ccc([C@@H]2[C@H](CO)N3CCCCN(CC4CCOCC4)C[C@@H]23)cc1,10
COCC#Cc1ccc2c(c1)O[C@@H](CN(C)S(=O)(=O)c1cccc(OC)c1)[C@H](C)CN([C@@H](C)CO)S2(=O)=O,-1.5
CCCN1[C@H](C(=O)N[C@H](C)c2ccccc2)[C@@H](CO)[C@@H]2Cn3c(ccc(-c4cccc(F)c4)c3=O)[C@@H]21,5.1
CC=Cc1ccc2n(c1=O)C[C@H]1[C@H](CO)[C@@H](C(=O)Nc3ccc(-c4ccccc4)cc3)[C@@H]2N1C(=O)CC (mixture of isomers),20

# Gathered by group, the entries above with a Cl atom (six)
SMILES,AF4-AF9 inh
C[C@@H]1CN([C@@H](C)CO)C(=O)Cc2cc(NS(=O)(=O)c3ccc(Cl)cc3)ccc2O[C@H]1CN(C)Cc1ccc(C(=O)Nc2ccccc2N)cc1,-19
C[C@H](NC(=O)[C@@H]1CCCN1C(=O)[C@@H]1CCCN1C(=O)c1cccc(Cl)c1)c1ccccc1,0.0
Cc1ccc2nc(-c3cccc(Cl)c3)c(Cc3cccc(Cl)c3)n2c1,-0.6
C[C@@H]1CN([C@@H](C)CO)C(=O)c2cc(N(C)C)ccc2O[C@H]1CN(C)S(=O)(=O)c1ccc(Cl)cc1,-2.2
O=C(Nc1ccccc1Cl)N1C[C@@H]2[C@H](c3ccccc31)[C@H](CO)N2Cc1ccccc1,0.6
Cc1ccc(S(=O)(=O)N2[C@@H](c3ccc(Br)cc3)C(C(=O)O)=CC[C@H]2c2ccc(Cl)c(Cl)c2)cc1,-0.9

# Next section:
SMILES,AF4-AF9 inh
Cc1ccc(S(=O)(=O)Nc2ccc3c(c2)CC(=O)N([C@H](C)CO)C[C@@H](C)[C@H](CN(C)C(=O)NC(C)C)O3)cc1,-0.7
CCc1nc2ccc(C(=O)N(CC)CCN(C)C)cn2c1N(C)C(=O)C1CCCCC1,-8.3
C[C@H](CO)N1C[C@H](C)[C@H](CN(C)C(=O)C2CCOCC2)Oc2ncc(-c3cccc(C#N)c3)cc2C1=O,-2.4
C[C@@H](NC(=O)C[C@H]1C=C[C@@H](NC(=O)C2CCC2)[C@@H](CO)O1)c1ccccc1,-2.3
O=C(C[C@@H]1C[C@@H]2c3cc(NC(=O)c4ccc5c(c4)OCO5)ccc3O[C@@H]2[C@@H](CO)O1)NCc1cccnc1,2.3
Cc1cc(C(=O)Nc2cccc3c2O[C@@H](CN(C)C(=O)Nc2cccc4ccccc24)[C@@H](C)CN([C@H](C)CO)C3=O)n(C)n1,-1.4
C[C@H](CO)N1C[C@H](C)[C@H](CN(C)Cc2ccc(-c3ccccc3)cc2)Oc2ccc(NC(=O)Cc3ccccc3)cc2CC1=O,2.2
O=S(=O)(c1cccc(Cl)c1)N1[C@@H]2CNC[C@H]1C2c1ccc(-c2cccc(F)c2)cc1 (stereo not given in full),-0.1&-1.6
CCCNC(=O)N1[C@@H](CO)[C@@H]2c3ccccc3N(C(=O)NC(C)C)C[C@@H]21,-3.7
C[C@H](CO)N1C[C@H](C)[C@@H](CN(C)C(=O)Cc2ccccc2)Oc2ncc(-c3ccc(F)cc3)cc2C1=O,-0.3
O=C(Nc1cccc(OC(F)(F)F)c1)C1Cc2c(-c3ccc4c(c3)OCO4)ccnc2O1 (stereo not given),0.1
C[C@H]1CN([C@@H](C)CO)C(=O)c2cc(C3=CCCC3)cnc2O[C@@H]1CN(C)C(=O)Nc1ccc(C(F)(F)F)cc1,-0.8
CSc1ccc(CN2CCC(C)(Oc3ccc(F)cc3)C2)cc1 (stereo not given),2.4
O=C(C[C@@H]1CC[C@@H]2[C@H](COC[C@H](O)CN2C(=O)Nc2cccc(Cl)c2)O1)N1CCCCC1,-3.7
C[C@@H]1CN([C@H](C)CO)C(=O)c2cccc(NC(=O)c3ccc(-c4nccs4)cc3)c2O[C@@H]1CN(C)CC1CCCCC1,3.0
COc1ccc2c3c(n(C)c2c1)[C@@H](CO)N(C(=O)CN(C)C)CC31CN(C(=O)C2CCC2)C1,0.8
Cc1ccc(S(=O)(=O)N(C)C[C@@H]2Oc3ccc(NC(=O)CCCCCC(=O)Nc4ccccc4N)cc3C(=O)N([C@@H](C)CO)C[C@@H]2C)cc1,0.0
C[C@H]1CN([C@@H](C)CO)C(=O)c2cccc(NC(=O)c3nc4ccccc4s3)c2O[C@H]1CN(C)Cc1ccc(Oc2ccccc2)cc1,-13
C[C@H]1CN([C@@H](C)CO)C(=O)c2c(c3ccccc3n2C)-c2ccccc2CO[C@@H]1CN(C)Cc1cccnc1,-4.6
C[C@@H]1CN([C@@H](C)CO)C(=O)CCCn2cc(nn2)CO[C@H]1CN(C)S(C)(=O)=O,-1.4&-1.3
CNC[C@@H]1Oc2ccc(NS(=O)(=O)c3c(C)noc3C)cc2CC(=O)N([C@@H](C)CO)C[C@@H]1C,-3.6
CCN1[C@@H]2c3cccc(=O)n3C[C@@H]2[C@@H](CO)[C@@H]1C(=O)NC1Cc2ccccc2C1,-1.4
Cc1noc(C)c1S(=O)(=O)Nc1ccc2c(c1)C(=O)N([C@H](C)CO)C[C@@H](C)[C@@H](CN(C)S(C)(=O)=O)OCCCC[C@H](C)O2,0.7
C[C@@H]1CN([C@H](C)CO)C(=O)Cc2cc(NC(=O)Cc3cn(C)c4ccccc34)ccc2O[C@H]1CN(C)Cc1ccc(C(F)(F)F)cc1,-4.7
COc1ccccc1-c1cn(CC[C@H]2CC[C@H](NC(=O)C3CCCC3)[C@H](CO)O2)nn1,-4.5
C[C@@H]1CN([C@@H](C)CO)C(=O)c2cccc(NC(=O)Nc3ccccc3)c2O[C@H]1CN(C)Cc1ccccc1,4.9
CCC(=O)N1[C@H](CO)[C@H]2c3ccccc3N(S(=O)(=O)c3ccc(F)cc3)C[C@H]21,-1.1
COc1ccc(CN2C[C@H](O)COC[C@H]3O[C@H](CC(=O)N(C)C)CC[C@@H]32)cc1,-1.8
CN1C[C@@H]2[C@@H]3C(=O)N(Cc4ccccc4)C(=O)[C@@H]3[C@](Cc3ccccc3)(C1=O)N2C(=O)c1ccccc1,3.6
C[C@H](CO)N1C[C@H](C)[C@H](CN(C)Cc2cncnc2)Oc2ncc(C#CC3CCCCC3)cc2C1=O,-4.7
CO[C@@H]1CN(C)C(=O)c2cc(NC(C)=O)ccc2OC[C@H](C)N(C(=O)Cc2cccnc2)C[C@@H]1C,7.7
COc1ccc(CNC(=O)c2ccc(-c3cccnc3)c3ccoc23)cc1OC,-1.4
O[C@@H](Cc1ccccc1)[C@@H](/C=C/C1CC1)N(CC#Cc1ccccc1)Cc1ccccc1Br,-3.4
